Source: PubChem BioAssay (Center for Chemical Genomics, University of Michigan)
TAR Tat displ: HIV-1 TAR-Tat binding disruption; HIV-1 TAR RNA, Tat peptide displacement FRET; active compounds read high; z-score (concentration not given with the values); 100,000 compounds, 0.6% hits; AID 1259389;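 also: score is relative to mean and SD of negative controls; some compounds called inactive have numbers as strong as hits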
CDC25B CDK2 inh: human CDC25B-CDK2/CyclinA binding inhibition; HTRF CDC25B-CDK2/CyclinA binding, anti-His/anti-Flag; active compounds read high; 94,000 compounds, 0.72% hits; P30305+P24941; z-score (no concentration beside the values);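 also: score is relative to mean and SD of negative controls; strong numbers were not always called active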
* marks the source's active call; other numbers are inactive results; / = not tested or not shown.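 The calls were made as follows: active = z-score from 3 up in half or more of its runs; inactive = the rest.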

Molecule | CDC25B CDK2 inh | TAR Tat displ
CN(C)CCCNc1sc(S(C)(=O)=O)nc1S(=O)(=O)c1ccc(Cl)cc1 | -0.16 | -1
CC1CCN(c2c(NCC3CCC(C(=O)N4CCCCCC4)CC3)c(=O)c2=O)CC1 (configuration not stated) | -2.3 | /
O=C(C1CCCCC1)N1CCN(c2ccccn2)CC1 | / | 1.4
CCc1nn2c(=O)cc(COc3cccc(C)c3C)nc2s1 | -2.4 | -0.23
Cc1cccc(-c2nn3c(=O)cc(CSCc4ccco4)nc3s2)c1 | 0.16 | -0.05
Nc1cccc(C2NC(=O)CS2)c1 (configuration not stated) | 10* | 0.9
Fc1ccc(Nc2nc3ccc(Cl)cc3n3nnnc23)cc1 | -1.5 | -4.6
Cc1cn2c(nc3c2c(=O)[nH]c(=O)n3C)[nH]1 | -0.88 | /
Cc1cnc2c(c1)C(=O)CCC2 | -0.65 | /
CC(=O)N1CCSc2ccc(S(=O)(=O)N(C)c3ccc(Br)cc3)cc21 | / | 0.41
CCc1cc2c(NCCN3CCC(C)CC3)ncnc2s1 | / | 1.2
CCCN(CCC)C(=O)c1cc(-c2ccco2)[nH]n1 | / | -6.7
O=C(Nc1ccc(F)cc1OC(F)(F)F)N1CCC(O)CC1 | -1.8 | /
Fc1cc(F)cc(-c2noc3ncnc(NCCc4ccccc4)c23)c1 | / | 0.28
Cc1nc2ccccc2c2c1C(=O)N(c1ccc(C(=O)O)cc1)C2=O | 4.6 | -0.52
CCOc1cc(C2Nc3c(C)cccc3-c3cc(C)nn32)ccc1O (configuration not stated) | 0.34 | 1.8
Cc1cc(NC(=O)CSc2nc3c(c(C(F)(F)F)n2)CCc2ccccc2-3)no1 | -0.95 | -0.25
CCCCCNc1nc(C)nc2c1sc1nc3c(cc12)COC(C)(C)C3 | -0.73 | 1
O=C(Cc1noc2ccccc12)Nc1ccccc1F | 0.19 | 0.37
CCC(C(=O)N1CCCCC1)N1C(=O)CCn2nc(C)cc21 (configuration not stated) | / | 1.4
CCC(C(=O)O)N1C(=O)c2ccccc2C1O (configuration not stated) | -0.76 | 1.1
Cc1onc(-c2ccccc2Cl)c1-c1nc(-c2ccccn2)no1 | 0.17 | 1.6
CC(CC(=O)N1CCN(c2ccccc2F)CC1)S(=O)(=O)c1ccc2c(c1)CCN2C(=O)C1CC1 (configuration not stated) | / | 0.55
CCCCC(=O)Nc1nn2c(C(C)C)nnc2s1 | -0.77 | 2.2
CC1CCN(C(=O)c2ccc3c(c2)N(C)CCS3)CC1 | 0.53 | 0.66
COc1ccc(C2c3c(oc4ccc(F)cc4c3=O)C(=O)N2CCCN2CCOCC2)cc1OC (configuration not stated) | -0.46 | -1.7
COc1ccc(C2=NN(S(=O)(=O)c3ccc(C)cc3)C(c3ccc(OC)c(OC)c3)C2)cc1OC (configuration not stated) | -1.9 | -1.4
CCc1cc2c(cc3c(=O)n(CC(=O)NCCc4c[nH]c5ccccc45)nc(CC)n32)s1 | -1.8 | -1.2
Cc1cc(CNC(=O)NC(C)C)c(C)n1-c1ccc(Cl)cc1 | / | 0.71
O=C(CCSc1nc(-c2ccc3c(c2)OCO3)cc(C(F)(F)F)n1)NC1CCCC1 | -1.9 | -0.07
CNC(=O)C1CCC(Cn2c(=O)c3sccc3n(CC(=O)N3CCCC3)c2=O)CC1 (configuration not stated) | / | 0.45
COc1ccccc1NC(=O)CSc1nnnn1-c1ccc(C(=O)O)cc1 | 2.3 | /
CC1CCCN(CCCNS(=O)(=O)c2ccc3c(c2)CC(C)N3C(=O)C2CCC2)C1 (configuration not stated) | / | 0.09
CCC(Sc1nc2ncccc2o1)C(=O)Nc1c(C)cc(C)cc1C (configuration not stated) | / | -1.7
Cc1cc(Cl)ccc1OC(C)C(=O)Nc1sc2c(c1C(N)=O)CCCC2 (configuration not stated) | -1.9 | -1.2
COc1ccc(C(O)(c2ccccc2OC)C(CN2CCOCC2)c2ccc(Cl)cc2)cc1 (configuration not stated) | -1.2 | 2.1
Cc1nn(-c2nc3ccccc3[nH]2)c2c1C(c1cccc(Br)c1)CC(=O)N2 (configuration not stated) | / | 2.4
COc1c2c(cc3cc[n+](C)cc13)OCO2 | / | 1.6
CC(CS(=O)(=O)c1ccc2c(c1)NC(=O)C(C)S2)C(=O)NCc1ccc2c(c1)OCO2 (configuration not stated) | / | -0.2
CC1CCN(C(=O)Cn2cnc(S(=O)(=O)N3CCCC3)c2)CC1 | / | 0.95
Nc1cc(Cl)c(S(=O)(=O)NC2CCCCC2)cc1S(=O)(=O)NC1CCCCC1 | 1.7 | /
CCc1nnc2c3ccccc3nc(Nc3ccc(OC)c(OC)c3)n12 | / | 2.5
Cc1cc2nc(-c3ccccc3)cc(C(F)(F)F)n2n1 | -0.83 | -0.12
OC(COc1ccccc1Cl)Cn1cnc2ccccc21 (configuration not stated) | -0.27 | /
CC(=O)Oc1ccc2nc(-c3ccccc3)oc(=O)c2c1 | -0.28 | 0.33
CC1CCCC(C)N1CCCNC(=O)CN1C(=O)CSc2ncccc21 (configuration not stated) | -2.1 | -0.34
Cc1ccn2cc(-c3cccc(S(=O)(=O)N4CC(C)CC(C)C4)c3)nc2c1 (configuration not stated) | 0.53 | -0.26
O=C(c1ccc2c(c1)OCO2)N(Cc1cccs1)C1(C(=O)NC2CCCCC2)CCCCC1 | -1 | /
CCOc1ccc(Nc2cc(C)nc3ncnn23)cc1 | 0.38 | 0.36
CCCN1CCN(C(=O)c2nn(C)c3c2CSc2ccccc2-3)CC1 | -0.45 | -0.17
Cc1ccc(-c2cn3cccnc3n2)cc1NC(=O)c1ccc(C(C)(C)C)cc1 | -0.25 | /
COc1ccccc1Nc1nc(-c2ccccc2)cs1 | -0.98 | /
O=C(CSc1nn2c(=O)c(Cc3ccccc3)nnc2s1)N1CCc2ccccc21 | -1.9 | 1.1
CCC(=O)N1c2ccccc2NC2=C(C(=O)CC(C)(C)C2)C1c1ccc(-c2ccc([N+](=O)[O-])cc2C)o1 (configuration not stated) | -3.5 | /
NNC(=S)c1cc(Cl)cc(Cl)c1 | -0.81 | /
Cc1ccc(C)c(S(=O)(=O)c2nnn3c2nc(NCCCOC(C)C)c2ccccc23)c1 | -2 | -0.94
C=CCSc1ncc(Cl)c(C(=O)Nc2nnc(SC)s2)n1 | -0.86 | -0.06
Cc1nnc2sc(SCC(=O)c3ccc(F)cc3)nn2c1=O | / | -0.61
Cc1ccccc1C(=O)N1N=C(c2ccc(F)cc2)CC1(O)C(F)(F)F (configuration not stated) | 0.2 | /
C#CCNc1nnc(C)c2nnn(Cc3ccccc3Cl)c12 | -1.5 | 1.1

Going on with the list.
Molecule | CDC25B CDK2 inh | TAR Tat displ
Cc1nn(C)c(C)c1[N+](=O)[O-] | -3.4 | /
N#Cc1cc2c(=O)n3ccccc3nc2n(-c2nnc(SCc3ccccc3F)s2)c1=O | 0.29 | 1.4
CCOC(=O)c1noc2ncn(Cc3nc(-c4ccc(C(C)C)cc4)oc3C)c(=O)c12 | -2.1 | 1.1
O=C(NC1CCCC1)N1CCc2c([nH]c3ccccc23)C1c1ccc(F)cc1 (configuration not stated) | / | -1.5
O=C(NC1CCCCC1)NC(c1ccc(Cl)cc1)c1nnc(-c2ccccc2)o1 (configuration not stated) | / | 0.01
O=C(CN1C(=O)CCc2cc(S(=O)(=O)N3CCCC3)ccc21)NC1CCCC1 | / | 1.2
CC1(C)CC(=O)c2sc(NC(=O)c3ccc(C(C)(C)C)cc3)nc2C1 | -1.8 | -0.53
Cc1ccc(C(C)C)cc1S(=O)(=O)NCc1ccccn1 | -0.71 | -0.53
Cc1c(NC(=O)c2sc3ccccc3c2Cl)cccc1-c1nc2ncccc2o1 | -0.81 | /
O=C(Nc1nnc(SCc2ccc(Cl)cc2)s1)c1csnn1 | -2.4 | 1.4
COC(=O)c1cc(NC2c3ccccc3C(=O)N2c2ccc(Cl)cn2)cc(C(=O)OC)c1 (configuration not stated) | -2.2 | -0.28
Cc1nn2c(=O)cc(CSc3nc(-c4ccco4)nc4cc(=O)[nH]n34)nc2s1 | / | 1.7
COc1cc(OC)cc(C(=O)n2c(=O)oc3ccc(C(C)(C)C)cc32)c1 | / | 1.9
O=S(=O)(NCCc1csc(-c2ccc(Cl)cc2)n1)c1ccc(F)cc1 | / | -0.25
CCCC1c2cccn2CCN1C(=O)Nc1ccc(F)c(Cl)c1 (configuration not stated) | / | -2.2
CCCCCOC(=O)C1=C(C)NC2=C(C(=O)CCC2)C1c1ccc(OC(C)=O)cc1 (configuration not stated) | -0.76 | -0.49
Cc1c(N2CCN(S(=O)(=O)c3cc(F)ccc3F)CC2)c(=O)n(C)c(=O)n1-c1ccccc1 | / | 0.51
CN1CCN(CCNC(=O)C2CCCN(S(=O)(=O)c3ccc4c(ccn4C)c3)C2)CC1 (configuration not stated) | / | 1.1
CCCS(=O)(=O)c1ncc(Cl)c(C(=O)Nc2ccc(Br)cc2)n1 | -0.31 | 1.3
CCC1CN(C(=O)Nc2ccccc2F)c2ccccc2S1 (configuration not stated) | / | 0.53
O=C(C1=C(O)C(=O)N(CCCn2ccnc2)C1c1cccc(Br)c1)c1cccs1 (configuration not stated) | -0.09 | 2.9
Cc1ccc(C(=O)N2CCN(c3oc(/C=C/c4cccs4)nc3C#N)CC2)cc1 | -0.81 | 0.36
COc1ccc(Br)cc1C1C=C(c2cccs2)Nc2nnnn21 (configuration not stated) | -2 | /
Cc1cc2c(c(=O)n1Cc1ccccn1)C(c1ccc3c(c1)OCO3)C(C#N)=C(N)O2 (configuration not stated) | -1 | /
O=C(CCCc1nnc2n3nc(-c4ccccc4)nc3c3ccccc3n12)NC1CCCC1 | -1.7 | -1
C[N+](C)(C)c1ccc(Br)cc1 | -0.74 | /
CC(C)n1c(SCC(=O)NNC(=O)c2c(F)cccc2F)nc2cc(C(F)(F)F)ccc21 | -1.4 | /
Cn1c(SCC(=O)Nc2ccc(Cl)cc2)nnc1-c1cnccc1C(F)(F)F | -0.23 | /
CCOc1ccccc1N(C)C(=O)c1noc2c1CSc1ccccc1-2 | -1.2 | 1.9
Cc1ccc2c(c1)NC(CCC(=O)N1CCN(c3cc(C)ccc3C)CC1)=NS2(=O)=O | / | 1.5
O=C(NNC(=S)Nc1cccc(C(F)(F)F)c1)c1sc2ccccc2c1Cl | -1.1 | /
CCN1CCN(CCCNc2nc(-c3ccc(Cl)cc3)nc3ccccc23)CC1 | / | -0.39
O=C(c1nc(-c2ccncc2)no1)N1CCCc2ccccc21 | / | 1.9
O=C(c1cc2ccccc2c(=O)s1)N1CCCc2ccccc21 | -1.1 | 0.79
CN1C(=O)c2ccccc2C(C(=O)O)C1c1cccs1 (configuration not stated) | 0.26 | 0.52
C=CCn1c(NCc2ccc(C)cc2)nc2ccccc21 | -2.6 | 3.1
N#CC1=C2SCN(c3ccccc3F)CN2C(=O)CC1c1cccc(Br)c1 (configuration not stated) | 2.7 | -1
CCOC(=O)N1CCN(S(=O)(=O)N2CCCC(C(=O)NC3CCCC(C)C3C)C2)CC1 (configuration not stated) | / | 1.6
CCC(=O)O[C@H]1[C@H](O[C@@H]2[C@@H](C)[C@H](O[C@H]3C[C@@](C)(OC)[C@@H](O)[C@H](C)O3)[C@@H](C)C(=O)O[C@H](CC)[C@@](C)(O)[C@H](O)[C@@H](C)C(=O)[C@H](C)C[C@@]2(C)O)O[C@H](C)C[C@@H]1N(C)C | / | 2.9
CCN(CC)C(=O)c1oc2ccc(S(=O)(=O)N3CCCCCC3)cc2c1C | 1.3 | /
Cn1ncc2c(N(CCO)Cc3ccccc3)ncnc21 | / | 0.54
CC1=C(C#N)C(c2ccccc2Br)C2=C(CC(c3ccccc3)CC2=O)N1 (configuration not stated) | -2.1 | 1.4
Cn1cc(-c2cc3n(n2)CCCN3C(=O)CCC(=O)N2CCC(C(N)=O)CC2)c2ccccc21 | / | 1
CCc1cccc(Nc2c(-c3ccc4c(c3)OCC(=O)N4)c(=O)c2=O)c1 | / | 0.58
CCN1C(=O)C(O)(CC(=O)c2ccncc2)c2ccccc21 (configuration not stated) | 0 | 1.2
COC(=O)NC(C)(C)C(C)(C)C(=O)O | -2.7 | /
Cc1nc(NC(C)c2ccccc2)c2sc3nc4c(cc3c2n1)COC(C)(C)C4 (configuration not stated) | / | 1.4

Reformatted with each value named: four of the compounds above.
Cc1cn2c(nc3c2c(=O)[nH]c(=O)n3C)[nH]1
  CDC25B CDK2 inh: -0.88
  TAR Tat displ: /
Cc1cnc2c(c1)C(=O)CCC2
  CDC25B CDK2 inh: -0.65
  TAR Tat displ: /
CC(=O)N1CCSc2ccc(S(=O)(=O)N(C)c3ccc(Br)cc3)cc21
  CDC25B CDK2 inh: /
  TAR Tat displ: 0.41
CCc1cc2c(NCCN3CCC(C)CC3)ncnc2s1
  CDC25B CDK2 inh: /
  TAR Tat displ: 1.2

In the list so far, 5 contain a cyano group.
Molecule | CDC25B CDK2 inh | TAR Tat displ
N#Cc1cc2c(=O)n3ccccc3nc2n(-c2nnc(SCc3ccccc3F)s2)c1=O | 0.29 | 1.4
Cc1ccc(C(=O)N2CCN(c3oc(/C=C/c4cccs4)nc3C#N)CC2)cc1 | -0.81 | 0.36
Cc1cc2c(c(=O)n1Cc1ccccn1)C(c1ccc3c(c1)OCO3)C(C#N)=C(N)O2 (configuration not stated) | -1 | /
N#CC1=C2SCN(c3ccccc3F)CN2C(=O)CC1c1cccc(Br)c1 (configuration not stated) | 2.7 | -1
CC1=C(C#N)C(c2ccccc2Br)C2=C(CC(c3ccccc3)CC2=O)N1 (configuration not stated) | -2.1 | 1.4
